Source: PubChem BioAssay (several laboratories)
Mtb bLac sens – beta-lactam sensitization of Mtb H37Rv, H37Rv | M. tuberculosis H37Rv growth with meropenem, percent inhibition; hits of this screen are not shown here | inhibition, % at 25 µM | actives 0.27% (n = 330,000) | AID 434955, 2010;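 active = about 74% or more and at least 40 points above the plate without the antibiotic, then above 30% in a dose series; inconclusive = first-round hits that could not be retested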;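 also: growth measured after seven days incubation then overnight dye step; 0% = bacteria only wells and 100% = bacteria with antibiotic; twin plates without the antibiotic show which effects depend on it; some results filed as inactive read as strong as hits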
YopH PTP inh – YopH tyrosine phosphatase inhibitors, primary screen, biochemical, fluorescence Ex485/Em525. inhibition, %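 (about 10 µM by stock and volumes)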. actives 0.16% (n = 140,000). AID 898, 2007;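 active = inhibition of 50% or more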;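 also: controls were vehicle for no effect and minimum signal wells for full effect; inactives centre near -20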
RecA splice inh – Mtb RecA intein splicing inhibitors, primary screen, biochemical, fluorescence, HTS. Protein RecA (Mycobacterium tuberculosis (strain ATCC 25618 / H37Rv)), P9WHJ3. cell-free RecA intein splicing. inhibition, %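 (about 9 µM by stock and volumes)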. actives 0.75% (n = 290,000). AID 2221, 2009; in the data active = inhibition above about 30%; inconclusive = no clear call, values can overlap the other calls;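 also: 0% = vehicle wells and 100% = reference inhibitor control wells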
Target sequence (P9WHJ3 whole entry, looked up, canonical isoform): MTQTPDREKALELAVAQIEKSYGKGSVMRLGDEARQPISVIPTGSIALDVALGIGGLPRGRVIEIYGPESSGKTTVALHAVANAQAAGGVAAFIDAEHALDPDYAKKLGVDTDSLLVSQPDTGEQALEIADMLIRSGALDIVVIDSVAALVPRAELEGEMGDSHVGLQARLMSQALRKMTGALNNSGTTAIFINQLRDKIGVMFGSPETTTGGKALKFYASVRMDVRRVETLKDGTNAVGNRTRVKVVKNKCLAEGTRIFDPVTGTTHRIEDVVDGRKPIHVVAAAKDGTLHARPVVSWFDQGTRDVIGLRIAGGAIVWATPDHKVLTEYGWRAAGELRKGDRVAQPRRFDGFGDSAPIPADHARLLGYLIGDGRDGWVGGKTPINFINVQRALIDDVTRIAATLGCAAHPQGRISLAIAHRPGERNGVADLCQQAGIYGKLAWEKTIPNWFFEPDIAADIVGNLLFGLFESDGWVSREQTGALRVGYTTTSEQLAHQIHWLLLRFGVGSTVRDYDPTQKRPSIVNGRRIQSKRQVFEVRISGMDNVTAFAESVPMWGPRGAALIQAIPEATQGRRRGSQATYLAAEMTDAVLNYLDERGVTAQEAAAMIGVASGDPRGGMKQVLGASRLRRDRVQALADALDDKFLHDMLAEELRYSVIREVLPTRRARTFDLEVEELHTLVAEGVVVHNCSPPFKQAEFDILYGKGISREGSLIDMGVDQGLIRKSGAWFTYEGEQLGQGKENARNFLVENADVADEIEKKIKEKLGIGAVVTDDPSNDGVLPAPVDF
Mtb growth – M. tuberculosis H37Rv growth inhibitors, H37Rv strain (AID 1626) | M. tuberculosis H37Rv growth inhibition; higher % means a stronger effect | inhibition, % at 10 µM, or IC50 in µM where a hit was titrated | actives 0.95% (n = 220,000);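 active = confirmed in a dose series; inconclusive = inhibition above 80% but not taken into the dose series; inactive = below 80% or under 30% at every dose of the series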;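 also: bacteria incubated seven days before Alamar blue readout; 0% = bacteria only wells and 100% = bacteria with antibiotic wells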
Arbovirus anti – antivirals against arbovirus infection, primary screen, cell-based, full library, 10K replicate subset | arbovirus infection cell-based antiviral screen | inhibition, % at 10 µM | actives 0.37% (n = 200,000) | AID 1251, 2008;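 active = inhibition from about 30%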;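 also: bluetongue infection of BSR cells; cell survival read as ATP light after 72 h; 0% = infected wells without compound and 100% = uninfected wells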
Arbovirus anti repeat – further read-out of Arbovirus anti, marked with its call; inhibition, %; measured here: 10K subset replicate screen; many hits read low in the repeat;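 first of two repeat runs on a subset; 0% = infected and 100% = uninfected wells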
* marks the source's active call; other numbers are inactive results; u = inconclusive; x = no result given. A portion of the library; rates above refer to the full screens.

SMILES	Mtb bLac sens	YopH PTP inh	RecA splice inh	Mtb growth	Arbovirus anti	others
COc1cc(CNS(=O)(=O)c2ccc3c(c2)CC(C)N3C(C)=O)cc(OC)c1OC (stereo not drawn)	0	x	-1.4	x	x
O=[N+]([O-])c1ccc(N2CCN(S(=O)(=O)c3ccccc3)CC2)cc1N1CCc2ccccc2C1	-1	-33	-3.0	-3%	-13
CCCC1CC(C(=O)NC(C(C)Cl)C2OC(SC)C(O)C(O)C2O)N(C)C1 (stereo not drawn)	85	x	1.8	x	x
Cn1c(=O)c2c(nc(N3CCN(c4ccc([N+](=O)[O-])cc4)CC3)n2C)n(C)c1=O	-2	x	1.7	-7%	x
CCC(=O)Nc1cccc(NC(=S)NC(=O)c2ccccc2)c1	5	-24	-2.7	11%	-5
O=C(O)c1ccc(OCCCCCCOC2CCCCO2)cc1 (stereo not drawn)	3	x	-1.8	x	x
CC1CCCN(C(=O)CCc2nnc(-c3ccc4c(c3)OCO4)o2)C1 (stereo not drawn)	-15	x	-0.9	x	x
CCOc1ccc(N/C(C)=C/C(=O)c2ccc(C)o2)cc1	99	-22	-1.0	13µM*	-4
CCCCCCC(=O)N1C/C=C\C(c2ccc(OC)cc2)N(Cc2ccc(F)cc2)C(=O)C1 (stereo not drawn)	-1	x	9.7	3%	x
CN(C)c1nc(NCc2ccccc2)nc(SCC(N)=O)n1	-3	x	-0.5	x	x
C=CCNc1oc(-c2cccs2)nc1S(=O)(=O)c1ccccc1	-3	x	1.2	0%	-1
COc1ccc(-c2csc(NC(=O)c3ccc(OCC(=O)N4CCOCC4)c(OC)c3)n2)cc1	29	7	0.1	0%	44*
CN(C)c1ccc(C(CNC(=O)c2ccccc2F)c2c[nH]c3ccccc23)cc1 (stereo not drawn)	2	-3	0.4	11%	7
COc1cc2c(cc1OC)/C(=C/C(=O)c1cccc([N+](=O)[O-])c1)NCC2	7	x	0.5	x	x
CNC(=S)N(CCCn1ccnc1)Cc1c(F)cccc1Cl	0	x	-0.6	x	x
O=C(CSc1nc(=O)n(CCCN2CCOCC2)c2c1CCC2)Nc1ccc([N+](=O)[O-])cc1	-9	x	2.2	x	x
Cc1ccc(Cl)c(NC(=S)N(CCCN2CCOCC2)Cc2ccco2)c1	2	-16	-0.6	1%	2
CC(C)n1nnnc1SCC(=O)NC1CCCC1	5	x	2.6	x	x
COC(=O)c1ccc(OCC(O)CN2CCN(C(=O)c3ccco3)CC2)cc1 (stereo not drawn)	-11	x	-1.7	x	x
COc1ccc(C2C(C#N)=C(N)Oc3c2c(-c2ccccc2)nn3-c2ccccc2)c(OC)c1OC (stereo not drawn)	-9	-28	6.4	-1%	14
COc1ccccc1N1CCN(S(=O)(=O)c2c(C)ccc3nsnc23)CC1	11	-18	0.2	-7%	-4
CC1CCN(Cc2c(C#N)c3ccccc3n2C)CC1	10	-28	x	-5%	2
O=C(c1cc([N+](=O)[O-])ccc1N1CCN(S(=O)(=O)c2ccc(Cl)c(Cl)c2)CC1)N1CCOCC1	-6	1	1.2	8%	4
COC(=O)C1=CN(c2ccc(OC)cc2)C=C(C(=O)OC)C1c1cc(OC)c(OC)cc1OC	-7	x	-16	x	x
Cc1cccc(OC(C)c2ccnc3nc(/N=C/N(C)C)nn23)c1 (stereo not drawn)	-8	-28	x	-4%	0
CCc1nc(N=C(N)N)nc2ccccc12	2	x	2.4	4%	-22
CCOc1cc(/C=N/NC(=O)CCc2n[nH]c(=O)[nH]c2=O)ccc1O	0	x	-3.7	2%	7
COc1ccc(OCC(O)CNC(=O)Nc2ccc(Cl)cc2)cc1 (stereo not drawn)	-3	-15	-2.0	-6%	4
CN1CCN(c2cc(N3CCN(C(=O)c4ccco4)CC3)c3c4c(onc24)-c2ccccc2C3=O)CC1	-1	x	5.0	x	x
COc1ccc(-n2ncc3c(N4CCN(c5cccc(C)c5C)CC4)ncnc32)cc1	-14	x	-3.8	x	1	Arbovirus anti repeat=-7
CCCCNS(=O)(=O)c1cc(-c2nn(C)c(=O)c3ccccc23)ccc1C	9	x	1.5	x	x
COc1cccc(OC)c1C(=O)Nc1cccc(-c2nc3ccccc3[nH]2)c1	-1	x	0.0	-9%	11
COCCNC(=O)C(c1ccc(F)cc1)N(CCOC)C(=O)CCC(=O)Nc1nccs1 (stereo not drawn)	-10	4	-0.6	-4%	1
O=C(CSc1nc2ccc(Cl)cc2[nH]1)NC1CCCC1	-3	x	-2.3	x	x
CCc1ccc(N(C(=O)c2snc(C(N)=O)c2N)C(C(=O)NCCC(C)C)c2c[nH]c3ccccc23)cc1 (stereo not drawn)	1	-12	-2.9	-1%	-9
CCOc1ccc(NC(=O)NC2CCOC(C)(C)C2)cc1 (stereo not drawn)	-8	-27	1.0	-11%	0
Cc1ccc(NC(=O)CCN2CCC(Cc3ccccc3)CC2)cc1	-2	x	-0.3	x	x
O=C(CSc1nc2c(c(=O)n1-c1ccc(Cl)cc1)SCC2)N1CCCC1	4	-27	0.4	-3%	1	Arbovirus anti repeat=5
Cn1c(CN2CCN(C(=O)c3ccccc3Cl)CC2)nc2cc([N+](=O)[O-])ccc21	3	-4	-1.7	4%	8
CN(c1ccccc1C(=O)NC1CC2CCC1C2)S(=O)(=O)c1ccccc1 (stereo not drawn)	2	-26	4.8	6%	-5
c1ccc2c(CNC3CCCCCC3)c[nH]c2c1	-12	3	x	-5%	12
COc1ccc(CCNC(=O)c2cc(-c3ccccc3OC)on2)cc1OC	-2	-23	-0.9	-18%	-8
CC1=C/C(=N\NC(=S)NCc2ccccc2)CC1	98	x	1.0	u	0
COc1c(Br)cc(Br)cc1C(=O)O	12	-26	-1.5	0%	-1
COc1ccc(-c2ccc(C#N)c(SCC(=O)Nc3sc4c(c3C#N)CCC4)n2)cc1OC	u	-8	x	-2%	-11
Cc1ccc(NC(=O)c2cc(-c3ccco3)nc3ccccc23)cc1S(=O)(=O)N1CCOCC1	3	x	5.4	1%	-4
C/C(=C\C(=O)O)CC(=O)O	-1	8	-2.3	2%	-1
S=C(NCc1ccco1)Nc1cccc(Cl)c1Cl	-3	x	0.4	-7%	x
COc1ccc(OC)c(NC(=O)Cn2c(=O)oc3ccccc32)c1	2	-17	-5.2	3%	-6
Cc1cc(N2CCN(C)CC2)nc2ccc(NC(=S)N3CCOCC3)cc12	-12	x	-2.9	6%	-1
COC(=O)c1ccc(C2C(C(=O)Nc3ccc(C)cc3C)=C(C)Nc3ncnn32)cc1 (stereo not drawn)	0	-25	0.0	6%	2	Arbovirus anti repeat=8
COc1ccc2cc(C(c3nnnn3C3CCCC3)N3CCc4ccccc4C3)c(=O)[nH]c2c1 (stereo not drawn)	-6	-14	-2.5	6%	-4
CN(C)CCn1c2c(c(SCC(=O)Nc3ccc4c(c3)OCCO4)nc1=O)CCC2	-12	x	0.4	x	x
CS(=O)(=O)N1CCC(C(=O)Nc2ccccc2Cl)CC1	4	x	-0.7	x	x
C/C(Cc1ccccc1)=N\NC(=O)CNC(=O)c1ccccc1Cl	-6	x	0.2	5%	x
COc1ccc(CCn2c(C)cc(C(=O)CCl)c2C)cc1OC	99	x	22	u	-35
COC(=O)[C@@H]1C(c2c(OC)cc(OC)cc2OC)=NO[C@H]1C(=O)OC	8	-25	-2.6	9%	7
COc1ccc(CCCNC(=O)CC#N)cc1OC	-2	-45	-0.2	0%	2
Cc1cc(C=O)c(C)n1-c1ccc(N2CCOCC2)c([N+](=O)[O-])c1	2	x	0.1	8%	2
Cc1ccc(S(=O)(=O)N2CCCCC2)cc1NC(=O)Cc1c[nH]c2ccccc12	5	-13	3.4	0%	17
Following part:
SMILES	Mtb bLac sens	YopH PTP inh	RecA splice inh	Mtb growth	Arbovirus anti	others
CCCc1cc(=O)c2ccc(OCC(C)=O)cc2o1	-1	x	3.1	18%	x
C=CCn1c(N)c(C(=O)N2CCOCC2)sc1=S	-7	-23	0.0	1%	-4
CCOCC(=O)Nc1c(C(=O)N2CCN(c3ncccn3)CC2)oc2ccccc12	5	x	5.6	x	x
COc1ccccc1N1CCN(Cc2cc(=O)c(OCC(=O)Nc3ccccc3)co2)CC1	-1	x	-3.1	x	x
CC1=C(C(=O)N2CCOCC2)C(c2ccccc2F)NC(=O)N1 (stereo not drawn)	0	x	-0.8	-4%	-3
COc1ccccc1CCc1nnc(CCC(=O)N(C)Cc2ccncc2C)o1	-1	x	-2.0	4%	3
O=c1[nH]c2ccc(NS(=O)(=O)c3ccc(F)c(Cl)c3)cc2[nH]1	-2	x	-3.5	x	x
CC(C)C(NC(=O)c1ccc(C(C)(C)C)cc1)C(=O)O (stereo not drawn)	-4	-12	-0.5	-8%	13
Cc1nnc(SCC(=O)NC2CCCc3ccccc32)n1-c1ccccc1 (stereo not drawn)	0	-20	-0.9	4%	1
CN(CC(=O)Nc1ccc(Cl)cc1)S(=O)(=O)c1cccc2cccnc12	-8	-6	x	-2%	-22
O=C(NC1CCCCC1)C1(S(=O)(=O)c2ccc(Cl)cc2)CC1	3	x	1.1	x	x
COC(=O)c1c(NC(=O)C(C)(C)C)csc1C	7	x	-3.4	-12%	x

5 consecutive records out of the list so far, quoted:
SMILES	Mtb bLac sens	YopH PTP inh	RecA splice inh	Mtb growth	Arbovirus anti	others
CCCc1cc(=O)c2ccc(OCC(C)=O)cc2o1	-1	x	3.1	18%	x
C=CCn1c(N)c(C(=O)N2CCOCC2)sc1=S	-7	-23	0.0	1%	-4
CCOCC(=O)Nc1c(C(=O)N2CCN(c3ncccn3)CC2)oc2ccccc12	5	x	5.6	x	x
COc1ccccc1N1CCN(Cc2cc(=O)c(OCC(=O)Nc3ccccc3)co2)CC1	-1	x	-3.1	x	x
CC1=C(C(=O)N2CCOCC2)C(c2ccccc2F)NC(=O)N1 (stereo not drawn)	0	x	-0.8	-4%	-3

Random excerpt: 2 records from the list
SMILES	Mtb bLac sens	YopH PTP inh	RecA splice inh	Mtb growth	Arbovirus anti	others
CCOCC(=O)Nc1c(C(=O)N2CCN(c3ncccn3)CC2)oc2ccccc12	5	x	5.6	x	x
CN(CC(=O)Nc1ccc(Cl)cc1)S(=O)(=O)c1cccc2cccnc12	-8	-6	x	-2%	-22

The listing continues.
SMILES	Mtb bLac sens	YopH PTP inh	RecA splice inh	Mtb growth	Arbovirus anti	others
CC(C)CNS(=O)(=O)c1ccc(CCC(=O)N2CCN(c3ccccc3)CC2)cc1	2	x	2.4	1%	-3
CC(=O)c1ccc(N2CCN(C(=O)Cc3ccccc3)CC2)c(F)c1	5	x	-6.8	x	x
COc1ccc(NS(=O)(=O)c2cc(NC(=O)c3nn(C)c(=O)c4ccccc34)ccc2OC)cc1	0	x	1.8	4%	0
CC(C)(C)NC(=O)CN(Cc1ccc(F)cc1)C(=O)Cn1nnc(-c2ccc(F)cc2)n1	-4	x	x	2%	1
CC1CCN(C(=O)CC2C(=O)Nc3c2c(=O)n(C)c(=O)n3Cc2ccccc2)CC1 (stereo not drawn)	3	4	-0.4	-3%	10
CCOc1ccc(C(=O)CCC(=O)N(CC)CC(=O)Nc2c(F)cccc2F)cc1	-16	x	2.1	x	x
CCN1C(=O)CC(NNC(=O)c2ccccc2)C1=O (stereo not drawn)	2	x	-1.3	2%	x
Nc1c(C(=O)NCCc2ccccc2)sc2nc(N3CCOCC3)c3c(c12)CCCC3	3	x	-0.5	13%	-3
CCCCCCOC(=O)C(C#N)c1nc2ccccc2nc1N1CCOCC1 (stereo not drawn)	-1	-20	-101	1%	2
COc1cccc(C(=O)NC2CCN(CC(=O)NCc3ccccc3F)CC2)c1	-2	x	-1.6	x	x
COc1ccc(O)c(C(=O)c2cnc3onc(C(C)C)c3c2)c1	-15	-36	-5.6	-5%	8
CSCCC(NC(=O)c1ccccc1Cl)C(=O)N1CCC1 (stereo not drawn)	2	x	-4.5	x	x
O=C(/C=C/c1ccc(Br)cc1)NC(=S)N1C[C@H]2C[C@H](C1)c1cccc(=O)n1C2	-1	x	20	x	x
O=[N+]([O-])c1cccnc1NCCc1ccccc1	0	x	1.2	14%	-5
COc1ccc(C(=O)NC(=S)NCc2ccccc2)cc1	-4	4	3.0	x	4
CCCOc1ccc(C(C(=O)OCCN(CC)CC)c2ccccc2)cc1 (stereo not drawn)	-10	-15	0.3	7%	3
CCC(C(=O)Nc1ccc(S(=O)(=O)N2CCN(C)CC2)cc1)c1ccccc1 (stereo not drawn)	-9	x	-2.9	x	x
COc1ccc(C(=O)n2nc(-c3ccco3)nc2SC)cc1OC	-1	27	9.6	-2%	-3
